Source: PubChem BioAssay
Arbovirus inh – blocks arbovirus infection; arbovirus infection cell-based antiviral screen; inhibition, % at 10 µM; 200,000 tested, 0.37% active; AID 1251;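 active = inhibition from about 30%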;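 also: bluetongue infection of BSR cells; cell survival read as ATP light after 72 h; 0% = infected wells without compound and 100% = uninfected wells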
Mtb H37Rv – M. tuberculosis H37Rv growth inhibitors, H37Rv strain (AID 1626); M. tuberculosis H37Rv growth inhibition; higher % means a stronger effect; inhibition, % at 10 µM, or IC50 in µM where a hit was titrated; 220,000 tested, 0.95% active;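 active = confirmed in a dose series; inconclusive = inhibition above 80% but not taken into the dose series; inactive = below 80% or under 30% at every dose of the series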;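 also: bacteria incubated seven days before Alamar blue readout; 0% = bacteria only wells and 100% = bacteria with antibiotic wells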
RecA intein inh – Mtb RecA intein splicing inhibition. cell-free RecA intein splicing, fluorescence. AID 2221. 290,000 tested, 0.75% active. P9WHJ3. inhibition, %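 (about 9 µM by stock and volumes)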; in the data active = inhibition above about 30%; inconclusive = no clear call, values can overlap the other calls;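 also: 0% = vehicle wells and 100% = reference inhibitor control wells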
Target sequence (P9WHJ3 whole entry, looked up): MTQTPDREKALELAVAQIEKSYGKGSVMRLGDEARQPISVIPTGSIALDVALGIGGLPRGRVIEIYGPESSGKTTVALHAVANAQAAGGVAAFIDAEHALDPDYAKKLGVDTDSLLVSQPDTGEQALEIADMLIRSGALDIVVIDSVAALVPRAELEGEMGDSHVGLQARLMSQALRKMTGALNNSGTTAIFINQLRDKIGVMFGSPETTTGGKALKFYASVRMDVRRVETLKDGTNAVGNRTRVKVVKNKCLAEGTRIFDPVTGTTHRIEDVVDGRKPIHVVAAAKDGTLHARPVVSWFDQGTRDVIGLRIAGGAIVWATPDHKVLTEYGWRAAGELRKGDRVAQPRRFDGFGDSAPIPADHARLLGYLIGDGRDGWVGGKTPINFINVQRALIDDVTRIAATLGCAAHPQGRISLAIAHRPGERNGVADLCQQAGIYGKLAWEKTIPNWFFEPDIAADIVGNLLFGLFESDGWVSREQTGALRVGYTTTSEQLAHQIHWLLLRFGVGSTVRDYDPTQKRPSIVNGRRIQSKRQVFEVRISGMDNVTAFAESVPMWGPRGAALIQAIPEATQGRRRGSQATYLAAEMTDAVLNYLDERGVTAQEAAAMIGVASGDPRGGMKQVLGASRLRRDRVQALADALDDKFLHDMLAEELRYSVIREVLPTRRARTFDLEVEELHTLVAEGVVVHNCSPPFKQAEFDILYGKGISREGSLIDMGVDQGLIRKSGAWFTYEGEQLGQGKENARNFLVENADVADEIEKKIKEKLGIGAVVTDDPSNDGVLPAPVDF
YopH inh – inhibitors of Yersinia enterocolitica YopH tyrosine phosphatase. AID 898. 140,000 tested, 0.16% active. inhibition, %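 (about 10 µM by stock and volumes)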. fluorescence Ex485/Em525;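 active = inhibition of 50% or more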;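 also: controls were vehicle for no effect and minimum signal wells for full effect; inactives centre near -20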
Mtb bLac sens – beta-lactam sensitization of Mtb H37Rv; M. tuberculosis H37Rv growth with meropenem, percent inhibition; hits of this screen are not shown here; inhibition, % at 25 µM; 330,000 tested, 0.27% active;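 active = about 74% or more and at least 40 points above the plate without the antibiotic, then above 30% in a dose series; inconclusive = first-round hits that could not be retested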;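 also: growth measured after seven days incubation then overnight dye step; 0% = bacteria only wells and 100% = bacteria with antibiotic; twin plates without the antibiotic show which effects depend on it; some results filed as inactive read as strong as hits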
Arbovirus inh repeat – further read-out of Arbovirus inh, marked with its call; inhibition, %; measured here: 10K subset replicate screen; many hits read low in the repeat;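 first of two repeat runs on a subset; 0% = infected and 100% = uninfected wells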
Starred values were filed as active, the others as inactive; ? = inconclusive; · = not tested or not shown.

SMILES	Arbovirus inh	Mtb H37Rv	RecA intein inh	YopH inh	Mtb bLac sens	others
Cc1nc(-c2cccc(S(=O)(=O)N3CC(C)OC(C)C3)c2)cs1 (centres undefined)	5	1%	0.9	-45	-3
CC(Oc1ccc(Cl)cc1Cl)C(=O)Nc1cccc(O)c1 (centres undefined)	-1	11%	1.0	·	2
O=C(NCCS(=O)(=O)N1CCCCC1)c1ccccc1	·	·	-0.1	·	-3
COc1ccc(NC2CCCN(C(=O)c3ccccc3N3CCOCC3)C2)cc1OC (centres undefined)	·	·	-4.1	·	-9
O=C1[C@H]2[C@@H](c3ccc(F)cc3)N3C(=O)N(c4cccc(Br)c4)C(=O)[C@@]3(Cc3ccc(Cl)cc3)[C@H]2C(=O)N1C1CCCCC1	·	·	6.9	·	-13
CCN(CC)CCN1C(=O)C(=O)/C(=C(/O)c2ccc(OC)c(OC)c2)C1c1ccccn1 (centres undefined)	1	-1%	-1.1	-14	3
O=S(=O)(c1ccccc1)N1CCN(c2ncccn2)CC1	5	6%	-2.1	-10	-14
CCCCn1c(N)c(N(CC(C)C)C(=O)c2cccc(-n3cnnn3)c2)c(=O)[nH]c1=O	·	·	-0.5	·	-11
COc1ccc(Cn2cnc3sccc3c2=O)cc1	-14	-2%	·	-25	3
CCc1ccccc1N/N=C(/C)c1c(O)cc(C)oc1=O	-21	-4%	-2.1	·	-5
COCCN(C(=O)COC(=O)c1ccccc1Nc1ccccc1)c1c(N)n(Cc2ccccc2)c(=O)[nH]c1=O	·	·	6.9	·	-5
COC(=O)COc1ccc(NC(=O)C2CCCO2)cc1 (centres undefined)	11	2%	1.8	-35	1
O=C(c1cc(-c2ccc(Cl)cc2Cl)on1)N1CCCCCC1	·	·	13	·	6
COCc1cc(CN2CCCC(C(=O)c3cccc(C(F)(F)F)c3)C2)ccc1OC (centres undefined)	5	9%	10	·	-1
O=C(CSCc1ccc(Cl)cc1)N1CCCCC1	1	5%	-0.4	-17	-5
CC(C)CN1CCN(Cc2cnc(-c3ccc(Cl)cc3)nc2)CC1CCO (centres undefined)	-16	-7%	0.3	·	-12
CCOC(=O)N1CCN(C(=O)c2cc3cc(F)ccc3[nH]2)CC1	·	·	-2.1	·	5
CC1Oc2ccccc2N(CC(=O)c2cccc(Cl)c2)C1=O (centres undefined)	9	9%	3.7	-16	25
Cc1nn(Cc2ccc(Cl)cc2)c(C)c1NC(=O)CCCn1nc([N+](=O)[O-])c(Cl)c1C	-8	12%	-0.9	-4	-7
COC(=O)c1ccccc1NC(=O)NCc1ccc2c(c1)OCO2	-9	-13%	2.7	-19	-1
Cc1c(NC(=S)NC(C)(C)C)c(=O)n(-c2ccccc2)n1C	-2	3%	-0.3	·	2
C/C(=N\NC(=O)c1cccc(N/N=C(\C)c2ccncc2)c1)c1ccncc1	-6	0%	-1.7	·	3
Cc1nc2ccccc2n1CC(=O)c1ccccc1	·	·	0.0	·	0
CC(NC(=O)c1cc2cc([N+](=O)[O-])ccc2oc1=O)C1CCCO1 (centres undefined)	1	6%	-5.2	·	72
CN(C[C@H](Cc1ccccc1)N(C[C@H](Cc1ccccc1)N(CC1(c2ccccc2)CC1)N=O)N=O)N=O	5	-7%	1.0	·	60
CCN(CC1CCCN(CCc2cccc(F)c2)C1)C(=O)c1cc2ccccc2o1 (centres undefined)	·	·	2.2	·	76
COc1ccc(Br)cc1CNC(=O)Cc1c(C(=O)O)[nH]c2ccc(Cl)cc12	3	-4%	4.2	·	-10
CCNCc1nc2cc(OC)c(OC)cc2c(=O)[nH]1	-6	3%	-5.1	-5	-2
COC(=O)c1ccc(N=C2S/C(=C\c3cc(C)n(-c4cccnc4)c3C)C(=O)N2C)cc1	-7	?	-4.3	-18	100
C=CCn1c(O)c(C(C)=Nc2ccc(C(=O)OCC)cc2)c(=O)[nH]c1=O	-3	14µM*	-0.9	-54	99
Cc1cc(NC(=O)CCC(=O)N(CC(=O)NC2CCCC2)c2ccc(C(C)C)cc2)no1	·	·	-1.4	·	-1
CCN1C(=O)c2cccc3c(S(=O)(=O)Nc4nc(C)cs4)ccc1c23	-16	-2%	-4.7	-41	-12
Oc1cc2ccccc2nc1-c1ccccc1Cl	·	7%	-69	·	3
Cc1ccc2[nH]c(C(=O)O)c(-c3ccccc3)c2c1	8	1%	2.1	-42	6
Cc1ccnc(NC(=O)c2cccc(NC(=O)Cc3ccccc3)c2)c1	-38	5%	-1.0	·	-5
CCC1Sc2ccc(S(=O)(=O)CCC(=O)NCc3cccs3)cc2NC1=O (centres undefined)	·	·	-0.2	·	5
COc1cccc(CNC(=O)CCS(=O)(=O)c2ccc3c(c2)NC(=O)CO3)c1	·	·	-2.8	·	-3
CN(C)S(=O)(=O)c1cccc(NC(=O)c2c[nH]c3ccccc23)c1	·	·	-4.6	·	-4
CCc1ccc(C(=O)c2cnc3ccc(OC)cc3c2N2CCN(CC)CC2)cc1	-9	-4%	-9.2	·	-2
COCCn1nnnc1C(c1ccccc1Cl)N1CCN(c2ccccc2OC)CC1 (centres undefined)	14	-7%	-1.3	-12	·
CC(C)(C)OC(=O)CN1C(=O)C(Sc2n[nH]c(-c3ccccc3)n2)CCc2ccccc21 (centres undefined)	-32	-1%	5.8	12	-6
COc1ccc(-c2nc(N=Nc3ccc(O)cc3)n[nH]2)cc1	-27	35%	2.4	-21	-10
CSc1cccc(CN2CCN(Cc3ccccc3)C(CCO)C2)c1 (centres undefined)	-13	3%	-1.1	·	1
CCN(CC)S(=O)(=O)c1ccc(N/N=C(\C)c2ccc(OC)cc2O)nc1	·	7%	7.9	·	·
O=C1c2cc(Cl)ccc2OC2(CCNCC2)C12CC(c1ccc(Cl)cc1)=NO2 (centres undefined)	·	8%	-1.2	·	8
CC(C)Nc1nnc(SC(C)C(=O)NCc2ccc3c(c2)OCO3)s1 (centres undefined)	1	4%	-6.7	·	-10
CNC(=O)CSc1nnc(-c2ccc(S(=O)(=O)N3CCCC3)cc2)n1-c1cccc(C)c1C	0	-3%	3.8	-7	-1
O=C(Nc1cccnc1)c1cc(-c2ccc3c(c2)OCO3)on1	-6	6%	0.7	-19	0
O=C(O)C1C2CCC(C2)C1C(=O)NCCCn1ccnc1 (centres undefined)	-2	3%	1.1	·	-11
CC(C)OC(=O)c1cccc(C(=O)Nc2cccc(NC(=O)c3cccc(C(=O)OC(C)C)n3)n2)n1	-19	2%	·	·	7
CSc1nc2ccccc2nc1N(C)S(=O)(=O)c1ccc(C)cc1	·	2%	0.0	·	-1
Cn1c(=O)n(C)c2cc([N+](=O)[O-])c(N3CCN(C(=O)c4ccccc4Br)CC3)cc21	-4	-3%	0.0	·	4
CCc1cccc(NC(=O)CS(=O)Cc2nc(-c3ccc(C)cc3)oc2C)c1 (centres undefined)	-17	-2%	-1.0	-31	2	Arbovirus inh repeat=-6
COC(C(=O)Nc1ccc(S(=O)(=O)N2CCCCC2)cc1)c1ccccc1 (centres undefined)	8	1%	·	-25	-2
Cc1ccc(N2C(=O)NC(=O)/C(=C/C=C/c3ccco3)C2=O)cc1	3	-13%	-4.4	1	88
O=C(CSc1nnc(-c2ccccn2)n1Cc1ccccc1)N1CCCC1	2	0%	-2.6	19	-3
COCCCNC(=O)C1=CCN(S(=O)(=O)c2ccc(C)cc2)CC1	·	·	0.8	·	3
CN(CC(=O)Nc1ccc(Cl)c(Cl)c1)C(=O)C12CC3CC(CC(C3)C1)C2	-16	24%	14	-15	8
CC1(C)C(C(=O)OCC(Cl)(Cl)Cl)N2C(=O)C(NC(=O)Cc3ccccc3)C2S1=O (centres undefined)	·	·	-3.6	·	-8
CC(C)(C)C(=O)C1=C(O)C(=O)N(Cc2ccccc2)C1c1ccccc1F (centres undefined)	·	·	-1.2	·	1

Five records picked at random from the list so far:
SMILES	Arbovirus inh	Mtb H37Rv	RecA intein inh	YopH inh	Mtb bLac sens	others
O=C(O)C1C2CCC(C2)C1C(=O)NCCCn1ccnc1 (centres undefined)	-2	3%	1.1	·	-11
CN(CC(=O)Nc1ccc(Cl)c(Cl)c1)C(=O)C12CC3CC(CC(C3)C1)C2	-16	24%	14	-15	8
CC(C)OC(=O)c1cccc(C(=O)Nc2cccc(NC(=O)c3cccc(C(=O)OC(C)C)n3)n2)n1	-19	2%	·	·	7
Cc1ccc(N2C(=O)NC(=O)/C(=C/C=C/c3ccco3)C2=O)cc1	3	-13%	-4.4	1	88
CC1(C)C(C(=O)OCC(Cl)(Cl)Cl)N2C(=O)C(NC(=O)Cc3ccccc3)C2S1=O (centres undefined)	·	·	-3.6	·	-8

The results go on:
SMILES	Arbovirus inh	Mtb H37Rv	RecA intein inh	YopH inh	Mtb bLac sens	others
CC1=C(C(=O)Nc2ccccn2)C(c2ccc(F)cc2)n2ncnc2N1 (centres undefined)	3	3%	1.0	-3	0
NC(=O)c1nsc(C(=O)N(Cc2ccco2)C(C(=O)NCc2ccc(F)cc2)c2ccc(O)cc2)c1N (centres undefined)	·	·	-4.6	·	3
COc1cc(OC)nc(NC(=O)CS(=O)(=O)c2ccccc2)n1	-2	1%	-1.2	10	2
COc1ccc(CCNC(=O)c2c(O)c3cccc4c3n(c2=O)CC4)cc1OC	·	1%	-1.0	·	0
CCOc1ccc2nc(SCc3ccc(CC(=O)O)cc3)c(C#N)cc2c1	-4	-12%	-8.0	·	-8
CCCCn1c(=O)[nH]c(=O)c2c1nc(-c1ccccc1OC(F)F)n2C	·	·	1.4	·	-1
CCc1[nH]nc2c1C1(CCN(C(=O)c3ccccc3)CC1)C(C#N)=C(N)O2	-9	-3%	67*	-14	2
CCOC(=O)N1CCC(N(CCN(C)C)C(=S)Nc2cccc(Cl)c2C)CC1	-6	-3%	-1.7	-6	2
CCC1CN(C(=O)N2CCC(C(=O)NCc3ccccc3OC)CC2)c2ccccc2O1 (centres undefined)	·	·	-2.5	·	-4
CCCCCOC(=O)CSc1nc2c(c(=O)[nH]c(=O)n2C)n1CCc1ccccc1	-3	16%	-13	34	90
O=C(NCc1ccccc1)C1C(=O)N(Cc2ccccc2)C(=O)C1C1(O)CCCC1 (centres undefined)	6	1%	-1.8	-36	5
Fc1ccc(-c2csc3nnc(SCc4cccnc4)n23)cc1	6	-10%	1.0	-8	5
Cc1ccc(Nc2c([N+](=O)[O-])ccc3nonc23)c(C)c1	·	·	-1.8	·	6
Cc1sc2ncnc(N3CCC(C(=O)Nc4ccccc4C(C)(C)C)CC3)c2c1C	·	·	-3.4	·	-4
CCOc1ccc(S(=O)(=O)n2cnc3ccccc32)cc1	·	·	1.8	·	-2

Among those listed so far, these contain a thiophene ring, fused or not:
SMILES	Arbovirus inh	Mtb H37Rv	RecA intein inh	YopH inh	Mtb bLac sens	others
COc1ccc(Cn2cnc3sccc3c2=O)cc1	-14	-2%	·	-25	3
CCC1Sc2ccc(S(=O)(=O)CCC(=O)NCc3cccs3)cc2NC1=O (centres undefined)	·	·	-0.2	·	5
Cc1sc2ncnc(N3CCC(C(=O)Nc4ccccc4C(C)(C)C)CC3)c2c1C	·	·	-3.4	·	-4

Later entries
SMILES	Arbovirus inh	Mtb H37Rv	RecA intein inh	YopH inh	Mtb bLac sens	others
CC#CCN1c2ccccc2[C@]23C[C@@H](C(=O)OC)N=C2NC(C(=O)OC)=C(C(=O)OC)[C@H]13	·	12%	-0.7	·	-16
Cc1nc2ccc(-c3nc4ccccc4[nH]3)cc2[nH]1	-3	-7%	5.4	·	-4
CCN(CC)c1ccc(/C=N/NC(=O)CNC(=O)c2ccccn2)cc1	-5	5%	-1.8	·	80
COC(=O)CNC(=O)CN1C(=O)N(c2cccc(Cl)c2)C(N(O)C(=O)Nc2cccc(Cl)c2)C1(C)C (centres undefined)	3	5%	6.7	4	2
CSc1ccccc1C(=O)N1CCC2(CC1)CC(=O)c1ccccc1O2	·	·	0.4	·	-7
COc1cc(Br)cc(C=Nc2cccc(C(F)(F)F)c2)c1O	9	6%	-6.2	-15	5

An excerpt, so the mix of outcomes need not match the whole.
